High-throughput results as filed in PubChem.
gsp antagonist: antagonists of gsp mutant (McCune-Albright syndrome); Potency, µM (highest dose often 76.9 µM), for the others: top-dose activity change, negative = inhibition, usual class: inhibitors; gsp-mutant cells, cAMP HTRF, 30 min; control for the full effect not named in the record; hit rate 0.4% among 340,000; AID 624288; active = falling curve of any shape with a large fitted effect; inconclusive = falling curve, mostly with a smaller effect; inactive = flat or rising curve; cell line not stated here;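 further: intracellular cAMP measured with PDE inhibitor Ro 20-1724 present during compound exposure; potency means the concentration at half of the fitted maximal effect; on the % scale 0 is the no-effect control and ±100 the full control effect; nearly all actives have a fitted effect of over 65% in size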
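Cells, 2000/well, grown 16–24 h in DMEM 10% FBS with 0.5 mg/ml G418, then compounds plus […] (300 uM addition stock), 30 min at 37C. cAMP read by HTRF (cAMP-d2 and anti-cAMP antibody-K in lysis buffer) after 30 min RT.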
Menin-MLL FL inh: inhibitors of human menin-MLL interaction, wild-type MLL peptide | Fluorescence polarization, fluorescein-MLL peptide displacement from menin | FP activity change, % at 61.4 µM | 290,000 tested, under 10 active | AID 1766; inconclusive = falling polarisation curve, or a change in total fluorescence; inactive = total fluorescence flat and polarisation flat or rising; no compound was filed as active; the % refers to the polarisation; negative = inhibition;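 further: % of control where 0% means no effect; inhibitors lower the polarisation; unlabelled MLL peptide was the positive control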
D2 PAM: human D2 receptor positive allosteric modulation; AID 624464; hit rate 0.23% among 360,000; DiscoveRx D2 beta-arrestin cells, luminescence, 90 min; 100% = 57 uM dopamine signal; P14416; potentiation, % (no concentration beside the values); active = potentiation of 50% or more; inconclusive = 30% to 50%; inactive = 30% or less;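 further: compound concentration not given in the record; tested on top of an EC20 dose of dopamine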
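PathHunter D2 cells, attached overnight at 37 deg C, received compound in DMSO plus dopamine at EC20 (50 nM final) for 90 min at 37 deg C. Beta-arrestin recruitment was read as luminescence after 1 h with detection reagent at ambient temperature.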
TRPV1 PAM: enhances activation of the human vanilloid receptor TRPV1; Q8NER1; TRPV1-expressing cells, Fluo-8 calcium influx, capsaicin EC20 potentiation; host cell line not named in the record; control for the full effect not named in the record; potentiation, % at 8.33 µM; hit rate 0.02% among 320,000; active means potentiation above 80%; inconclusive means 30% to 80%; inactive means below 30%; further: 0% is about no effect
Target sequence (Q8NER1 whole entry, looked up): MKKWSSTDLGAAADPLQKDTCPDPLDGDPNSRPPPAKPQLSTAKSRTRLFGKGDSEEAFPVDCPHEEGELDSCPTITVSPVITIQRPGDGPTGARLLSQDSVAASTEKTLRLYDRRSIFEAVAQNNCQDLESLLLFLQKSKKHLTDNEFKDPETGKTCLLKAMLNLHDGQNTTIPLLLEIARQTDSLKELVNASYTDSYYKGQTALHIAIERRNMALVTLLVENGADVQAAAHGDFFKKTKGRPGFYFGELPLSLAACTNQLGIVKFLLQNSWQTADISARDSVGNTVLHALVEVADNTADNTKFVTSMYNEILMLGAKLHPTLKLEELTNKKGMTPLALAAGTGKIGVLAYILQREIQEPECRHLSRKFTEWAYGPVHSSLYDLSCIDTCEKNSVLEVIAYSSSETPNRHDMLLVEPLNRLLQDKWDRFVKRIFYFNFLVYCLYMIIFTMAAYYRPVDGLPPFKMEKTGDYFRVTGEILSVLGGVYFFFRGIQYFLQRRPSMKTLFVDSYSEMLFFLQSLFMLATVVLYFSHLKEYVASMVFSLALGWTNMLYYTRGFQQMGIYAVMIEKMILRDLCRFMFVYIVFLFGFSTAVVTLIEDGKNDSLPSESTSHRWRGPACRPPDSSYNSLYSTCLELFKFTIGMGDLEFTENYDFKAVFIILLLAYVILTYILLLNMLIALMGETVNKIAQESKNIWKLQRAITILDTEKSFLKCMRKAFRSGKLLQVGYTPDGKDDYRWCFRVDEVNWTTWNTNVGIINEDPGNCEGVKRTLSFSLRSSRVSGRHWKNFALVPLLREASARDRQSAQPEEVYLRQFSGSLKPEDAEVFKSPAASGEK
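Cells expressing TRPV1 were dye-loaded with Fluo-8 and read kinetically: 10 s baseline, 3 min after compound (agonist portion), then 2 min after EC20 capsaicin (allosteric enhancer portion). Calcium-bound dye fluorescence at 480/520 nm.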
gsp ag: agonists of gsp mutant (McCune-Albright syndrome); gsp mutant cells, cAMP HTRF, 30 min; control for the full effect not named in the record; Potency, µM (titrated, usually from 76.9 µM), for inactives: at the top dose activation (cAMP increase), actives largely listed as activators; hit rate 0.13% among 340,000; AID 624287; active = well fitted activation curve with a large enough effect; inconclusive = small, poorly fitted or top-dose-only effect, or another doubt; inactive = no such curve, though single readings can be large or run the other way; cell line not stated here;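 further: phosphodiesterase inhibitor Ro 20-1724 added with compounds to block cAMP breakdown; potency means the concentration at half of the fitted maximal effect; nearly all actives have a fitted effect of over 60% in size; about a fifth of the inactives were tested at one dose only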
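Cells stably selected in G418 were plated at 2000/well, grown 16-24 hr, then given compounds in DMSO with the PDE inhibitor […] (300 uM solution added) for 30 min at 37C; cAMP was read by HTRF.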
ClpP mod: qHTS Assay for Activators of ClpP. Potency, µM (titrated, usually from 57.5 µM), inactives show at the highest dose activity change, negative = active. hit rate 1.9% among 340,000. ATP-dependent Clp protease proteolytic subunit (Bacillus subtilis (strain 168)), P80244. purified B. subtilis ClpP, FRET peptide cleavage, 20 min. AID 651965, 2013; active = well fitted falling curve with a large enough effect; inconclusive = small, poorly fitted or top-dose-only effect; inactive = no such curve, though single readings can be large or run the other way; further: potency means the concentration at half of the fitted maximal effect; the source files actives as falling curves though it sought activators and does not explain the sign; nearly all actives have a fitted effect of over 65% in size; many hits overshoot -100%
Target sequence (P80244 whole entry, looked up): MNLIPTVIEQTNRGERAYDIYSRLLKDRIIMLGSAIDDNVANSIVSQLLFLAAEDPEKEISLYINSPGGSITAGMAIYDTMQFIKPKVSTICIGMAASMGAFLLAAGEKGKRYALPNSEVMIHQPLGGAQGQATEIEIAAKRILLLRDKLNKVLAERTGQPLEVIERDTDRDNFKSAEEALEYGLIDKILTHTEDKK
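Purified B. subtilis ClpP, 10 microg/mL final in Tris/HCl pH8 with KCl, BSA, glycerol and Tween-20, cleaved an Abz/nitrotyrosine-quenched decapeptide. Fluorescence (ex 320, em 430) was read at 0 and 20 min at room temperature. Delta was normalized to 5.8 microM ADEP and DMSO/no-enzyme controls.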
Sfp PPTase inh: Sfp phosphopantetheinyl transferase inhibition | Q9F4F7 | Biochemical Sfp PPTase activity, qHTS | Potency, µM, inactives show max response, negative = inhibition, usual class: inhibitors | hit rate 3.5% among 310,000; active means well fitted inhibition curve with a large enough effect; inconclusive means small, poorly fitted or top-dose-only effect, or another doubt; inactive means no such curve, though single readings can be large or run the other way;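 further: the enzyme is Sfp with the accession as filed and its product quenches rhodamine fluorescence; potency means the concentration at half of the fitted maximal effect; 0% = enzyme reaction without inhibitor and -100% = no enzyme wells; top concentration of the series not given in the record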
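Step 1, compound plus 15 nM Sfp-PPTase, 15 min, room temperature. Step 2, add rhodamine-CoA (5 uM) and BHQ-2-YbbR (12.5 uM). Step 3, read 525/598 nm fluorescence at 0 and 30 min.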
Numbers without * were called inactive; ? = inconclusive; · = no result given; & = joins results of further samples; [ ] = another dose, or the depositor's remark. No enrichment for hits; about 5.1% have a hit in one of these screens.

SMILES | gsp antagonist | Menin-MLL FL inh | D2 PAM | TRPV1 PAM | gsp ag | ClpP mod | Sfp PPTase inh
O=S(=O)(NCc1cc(-c2ccccc2Cl)no1)c1ccc(Cl)cc1 | -10% | 2.7 | -6 | · | 14% | -0.7% | -11%
CCCNC(=O)C(Cc1cccc(Br)c1)NC(=O)c1ccc(C#N)cc1 (stereo not given) | -7% | · | -4 | -9 | 17% | 1.6% | ·
COc1ccc(OC)c(CNC(=O)CCc2cn(C)c3ccccc23)c1 | -13% | 5.5 | -6 | 1 | ? | -24% | 8%
COC(=O)c1[nH]c2ccc(Br)cc2c1NC(=O)CN1CCCc2ccccc21 | -6% | 3.5 | -17 | -10 | 24% | -5.0% | 19%
Cc1c(C(=O)NNC(=O)c2cccnc2)cccc1[N+](=O)[O-] | 2% | · | -3 | · | 4% | -1.2% | ·
CCCc1cc(=O)[nH]c(SCC(=O)Nc2ccc(C)cc2)n1 | -9% | -3.3 | -9 | 15 | -62%[inhibitor] | 1.8% | 11%
CC1(C)CC(=O)C=C(c2ccc(COC(=O)Cc3ccccc3)cc2)C1=O | · | · | 3 | · | ? | 0.2% | ·
Cc1ccc(S(=O)(=O)NCCC(=O)NCCc2ccccc2)cc1 | 6% | · | -6 | · | -8%[15.4 µM] | · | ·
O=C(/C=C/c1ccccc1F)c1ccoc1 | -1% | 1.9 | -4 | -9 | ? | 2.6% | -7%
COc1ccc(S(=O)(=O)Cc2ccc(C(=O)NCc3ccc(F)cc3)o2)cc1 | · | 4.7 | · | -10 | · | · | -5%
Cc1ccccc1NC(=O)c1ccc2c(c1)CCN2S(C)(=O)=O | -1% | -7.2 | -3 | -13 | 3%[15.4 µM] | -0.6% | 5%
NC(=O)Cn1cc(/C=N/NC(=O)c2ccc(Cn3cc(Cl)cn3)o2)c(-c2ccccc2)n1 | 13% | · | -4 | 6 | ? | -18% | 13%
CCCc1cc(=O)[nH]c(SCC(=O)c2ccc(S(=O)(=O)N3CCCC3)cc2)n1 | -20% | 1.7 | 4 | 3 | -15% | 0.1% | -8%
CCC(C)NC(=O)c1cc2cc3ccc(OC)cc3nc2o1 (stereo not given) | -29% | ? | 6 | 10 | 8%[15.4 µM] | 0.3% | 13%
C=C(C)c1ccc(C(C)(C)NC(=O)N2CCN(C)CC2)cc1 | -1% | -4.4 | -2 | ? | 0% | -12% | 10%
O=C(NCc1ccccn1)c1cn(Cc2ccccc2)nn1 | 18% | 0.4 | -5 | 4 | ? | 0.2% | -8%
COC(=O)CN1C(c2ccc(Cl)cc2)=Nc2ccc(Cl)cc2C1c1ccccc1 (stereo not given) | ? | 1.1 | -31 | -32 | -7% | 1.4% | 2%
CNC(=S)N/N=C/c1cn(Cc2ccc(C)cc2)c2ccccc12 | 14% | 1.2 | -5 | -22 | -29% | -19% | 2%
Cn1nc(-c2ccccc2)cc1NC(=O)Nc1ccccc1F | -11% | -0.3 | 0 | -8 | -1%[15.4 µM] | · | -8%
Cn1cc(C=O)c2cc(F)ccc21 | 9% | 2.5 | -1 | ? | 22% | 1.4% | 4%
Cc1ccc(Sc2ccc(C(=O)N(C)C)cc2[N+](=O)[O-])cc1 | -8% | 2.4 | -15 | 5 | 3% | -0.2% | -5%
O=C(CSc1ncc(C(=O)O)n1-c1ccc(F)cc1)NCc1ccc2c(c1)OCO2 | · | 8.8 | -1 | 14 | 1%[15.4 µM] | · | -3%
Cc1ccc2cc3c(NC(=O)c4cccnc4)nn(C)c3nc2c1 | -3% | 0.5 | -2 | ? | -2% | -6.5% | 16%
CSc1ccccc1NC(=O)COC(=O)c1ccc(O)cc1 | 0% | -6.7 | 1 | ? | -3% | · | 5%
O=C(O)CCCCC1SCC2NC(=O)NC21 (stereo not given) | 7% | -1.9&-1.1&1.2 | -30 | -9&-2 | · | -1.8% | 14%&11%&14%
Next part:
SMILES | gsp antagonist | Menin-MLL FL inh | D2 PAM | TRPV1 PAM | gsp ag | ClpP mod | Sfp PPTase inh
CC(C)(C)NC(=O)C(c1ccncc1)N(C(=O)Cn1nnc(-c2ccc(F)cc2)n1)c1ccccc1 (stereo not given) | -20% | 9.8 | -9 | -4 | -10%[15.4 µM] | · | 20µM*
CCOC(=O)C(=O)N1CCN(CC)CC1 | 13% | 2.4 | -4 | -5 | -13% | 2.0% | 3%
COc1cccc(CNCc2ccccc2OC)c1 | 11% | 4.7 | -6 | 6 | 15% | -0.3% | -3%
O=C(c1cccs1)N(CCO)Cc1cc2cc3c(cc2[nH]c1=O)OCCO3 | · | -1.5 | · | -24 | · | · | 14%
CN(N=Cc1cccc2cccnc12)c1ccc([N+](=O)[O-])cc1[N+](=O)[O-] | 17% | · | 5 | · | ? | -21% | ·
Fc1ccc(-c2csc(NC3=NCCC3)n2)cc1 | -2% | 0.2 | -3 | -2 | ? | · | -18%
CN(Cc1cccnc1)C(=O)CC1C(=O)NCCN1CC(c1ccccc1)c1ccccc1 (stereo not given) | 8% | 1.2 | -10 | 8 | 8% | -3.3% | 6%
Cc1ccc(-c2ccc(CCC(=O)O)o2)cc1 | -5% | 4.0 | -13 | 8 | 11% | 16µM* | 45µM*
CCCn1cc(CN2CCC(n3nccc3NC(=O)c3ccccc3)CC2)c(C)n1 | 8% | · | -4 | 2 | 0% | 3.2µM* | 16%
O=C(Nc1ccc(N2CCOCC2)cc1)c1cc(F)c(F)cc1Cl | -20% | -3.6 | 6 | 5 | 8% | -1.3% | 17%
CCCCCC1CCC(c2ccc(/C(N)=N/O)cc2)CC1 (stereo not given) | 10% | 1.1 | -23 | -1 | -11% | -0.8% | 13%
Cc1ccc(S(=O)(=O)N2CCN(C)CC2)cc1C | 17% | -0.3 | 15 | 4 | 0% | -1.0% | -1%
CCc1ccc(NC(=O)N(Cc2cccnc2)Cc2ccco2)cc1 | 7% | 3.3 | -14 | 23 | 4% | -0.9% | 12%
Nc1nnc(SCC(=O)N2CCN(c3ccccc3)CC2)s1 | -8% | 2.7 | 28 | -13 | 2% | -1.2% | 11%
CCC(COC)NCc1cn(-c2ccc(F)cc2F)nc1-c1ccccc1C (stereo not given) | 3% | 4.5 | -14 | -5 | -4% | 2.3% | 10%
COc1cc(Cl)ccc1OCc1cc(C(=O)NCC(C)c2ccccc2)no1 (stereo not given) | -3% | 6.6 | -28 | 17 | ? | -1.1% | 9%
Cc1csc(SCC(=O)NC23CC4CC(CC(C4)C2)C3)n1 | -4% | 4.4 | 4 | -16 | -14% | 1.1% | 6%
N#C/C(=C\c1c(N2CCOCC2)nc2ccccn2c1=O)S(=O)(=O)c1ccccc1 | -7% | 9.8 | 1 | -13 | ? | -0.8% | 0%
Cc1cccc2c(Cl)cc(=O)[nH]c12 | · | 5.5 | · | -2 | · | · | 18%
O=C(Nc1cccc2ncccc12)c1cc2ccccc2o1 | -3% | 2.1 | -13 | -18 | ? | 1.2% | 2%
COc1ccc(NS(=O)(=O)c2ccc(NS(C)(=O)=O)cc2)cc1 | 7% | 3.0 | 3 | 5 | 11% | 1.0% | 10%
COc1ccccc1NC(=O)CCn1c(=O)sc2ccccc21 | 4% | -0.3 | -9 | 0 | -14% | -0.9% | 6%
CN(C)c1oc(-c2ccccc2Cl)nc1C#N | -7% | 2.9 | -10 | 10 | ? | 14µM* | 15%
COc1ccc(NC(=S)NCc2ccc(S(N)(=O)=O)cc2)cc1OC | 3% | 0.1 | 3 | -7 | -1% | · | -25%
CCOC(=O)N1CCN(C(=O)c2ccc(Oc3ccc([N+](=O)[O-])cc3)cc2)CC1 | -16% | 2.7 | 10 | -7 | 4%[15.4 µM] | · | 4%
(more compounds)
SMILES | gsp antagonist | Menin-MLL FL inh | D2 PAM | TRPV1 PAM | gsp ag | ClpP mod | Sfp PPTase inh
COC(=O)COc1c(Cl)cc(Cl)c2ccc(C)nc12 | 0% | 1.3 | 1 | -3 | -19% | · | 2%
COc1ccc(NC(=O)c2sc(N3CCOCC3)nc2-c2ccccc2)c(OC)c1 | -26% | 1.3 | -8 | -21 | 6% | -3.6% | ?
CN(C(=O)c1ccc(C#N)cc1)c1nnc(-c2cnccn2)s1 | 3% | 6.6 | -9 | -14 | 0% | 0.8% | 23%
CC1CCN(c2nc3c(cc2C#N)COC(C)(C)C3)CC1 | -4% | 0.3 | 2 | 5 | 0%[15.4 µM] | -1.7% | 2%
Nc1ccc(S(=O)(=O)c2ccc(N)nc2)cc1 | 8% | · | -4 | · | -6% | · | ·
CCCCS(=O)(=O)Nc1ccc(Cc2ccncc2)cc1 | -23% | -0.4 | -1 | 2 | -19% | -0.7% | -3%
COc1cccc(/C=N/NC(=O)c2cccs2)c1 | -4% | 5.9 | -3 | -14 | 5% | · | 17%
CC(=O)c1cn(-c2ccc(Cl)cc2)c(=O)n(Cc2ccc(F)cc2)c1=O | -7% | -0.7 | -6 | -20 | -14%[15.4 µM] | · | 9%
CCS(=O)(=O)N1CCc2nc(-c3ccccc3)sc2C1 | -9% | 0.5 | -1 | -4 | 26% | -30% | -12%
COc1ccccc1NC(=O)C1CCC(CNc2c(N3CCCCC3)c(=O)c2=O)CC1 (stereo not given) | -4% | 13 | -18 | ? | -1% | 0.6% | 8%
Cc1ccccc1C(=O)NNC(=O)Cc1ccccc1 | 12% | -6.8 | -1 | 2 | -3% | 0.8% | 6%
CCCCn1c(N)c(N(CCC(C)C)C(=O)CSc2nnc(C)s2)c(=O)[nH]c1=O | 12% | 1.8 | 0 | -6 | 4% | 1.7% | 0%
CC(OC(=O)CCCC(=O)Nc1ccc(F)cc1)C(=O)c1ccccc1 (stereo not given) | 4% | · | 2 | -9 | -11%[15.4 µM] | · | 21%
CC(=O)c1ccc(NC(=O)Nc2ccc([N+](=O)[O-])cc2C)cc1 | -12% | 2.0 | -18 | -11 | 3% | -1.0% | 10%
CC(=O)N1CCc2cc(S(=O)(=O)NCCCOC(C)C)ccc21 | -15% | 3.9 | -6 | 16 | -1% | 0.2% | 20%
